Source: PubChem
TRPV1 potentiator: human TRPV1 potentiation. potentiation, % at 8.33 µM. AID 540277. Q8NER1. hit rate 0.02% among 320,000. TRPV1-expressing cells, Fluo-8 calcium influx, capsaicin EC20 potentiation; host cell line not named in the record; control for the full effect not named in the record; active means potentiation above 80%; inconclusive means 30% to 80%; inactive means below 30%; note: 0% is about no effect
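Cells expressing TRPV1 were dye-loaded with Fluo-8 and read kinetically: 10 s baseline, 3 min after compound (agonist portion), then 2 min after EC20 capsaicin (allosteric enhancer portion). Calcium-bound dye fluorescence at 480/520 nm.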
ClpP mod: qHTS Assay for Activators of ClpP. ATP-dependent Clp protease proteolytic subunit (Bacillus subtilis (strain 168)), P80244. purified B. subtilis ClpP, FRET peptide cleavage, 20 min. Potency, µM (top dose mostly 57.5 µM), for inactives: at the top dose activity change, negative = active. hit rate 1.9% among 340,000. AID 651965, 2013; active = well fitted falling curve with a large enough effect; inconclusive = small, poorly fitted or top-dose-only effect; inactive = no such curve, though single readings can be large or run the other way; note: potency is the fitted concentration of half-maximal effect; the source files actives as falling curves though it sought activators and does not explain the sign; nearly all actives have a fitted effect of over 65% in size; many hits overshoot -100%
Target sequence (P80244 whole entry, looked up): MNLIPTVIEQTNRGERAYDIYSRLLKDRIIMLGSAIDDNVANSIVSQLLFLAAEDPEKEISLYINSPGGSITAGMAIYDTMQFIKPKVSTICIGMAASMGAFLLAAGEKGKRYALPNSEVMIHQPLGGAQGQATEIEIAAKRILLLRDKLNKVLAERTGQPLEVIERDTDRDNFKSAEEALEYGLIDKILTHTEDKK
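Buffer: 100 mM Tris/HCl pH8, 100 mM KCl, 0.05% low protease BSA, 2.5% glycerol, 0.01% Tween-20. ClpP 10 microg/mL final; 20 min RT; delta FRET normalized to ADEP and DMSO controls.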
gsp antag: gsp mutant antagonism; Potency, µM (doses to about 76.9 µM), for inactives: at the top dose activity change, negative = inhibition, usual class: inhibitors; AID 624288; gsp-mutant cells, cAMP HTRF, 30 min; control for the full effect not named in the record; hit rate 0.4% among 340,000; active = falling curve of any shape with a large fitted effect; inconclusive = falling curve, mostly with a smaller effect; inactive = flat or rising curve; cell line not stated here;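 note: intracellular cAMP measured with PDE inhibitor Ro 20-1724 present during compound exposure; potency is the fitted concentration of half-maximal effect; % is set by controls: 0 for no effect and ±100 for the full control effect; nearly all actives have a fitted effect of over 65% in size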
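Cells in G418 medium, seeded 16-24 h, 37C; buffer exchange to DPBS + 1 mM CaCl2, 0.5 mM MgCl2, 0.05% BSA; cpds in DMSO + […] (300 uM stock), 30 min 37C; HTRF cAMP detection.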
Sfp PPTase inh: blocks B. subtilis Sfp PPTase activity | hit rate 3.5% among 310,000 | Potency, µM, for the others: max response, negative = inhibition, most hits filed as inhibitors | Biochemical Sfp PPTase activity, qHTS; active = well fitted inhibition curve with a large enough effect; inconclusive = small, poorly fitted or top-dose-only effect, or another doubt; inactive = no such curve, though single readings can be large or run the other way;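 note: the enzyme is Sfp with the accession as filed and its product quenches rhodamine fluorescence; potency is the fitted concentration of half-maximal effect; 0% = enzyme reaction without inhibitor and -100% = no enzyme wells; top concentration of the series not given in the record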
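Fluorescence-quenching assay with 15 nM Sfp, 5 uM rhodamine-CoA and 12.5 uM BHQ-2-labelled ybbR peptide in pH 7.6 Hepes/MgCl2 buffer. Enzyme was pre-incubated with compound for 15 min at room temperature. Rate was taken from the 30-min fluorescence change (525/598 nm).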
TRPML1 blocker: blocks the human TRPML1 channel; AID 624415; Q9GZU1; TRPML1-inducible cells, Ca2+ dye fluorescence, FDSS; active compounds read low; inhibition of EC80 agonist-evoked calcium signal; hit rate 0.02% among 390,000; activity change, negative = inhibition, % (concentration not given with the values); in the data active means activity change below about -50%; inconclusive means about -30% to -50%; inactive means above about -30%;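 note: stimulus is agonist 54-4 at its EC80 concentration; % is set by controls: 0 for no effect and ±100 for the full control effect; the text of the record puts the active cut at -80%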
Target sequence (Q9GZU1 whole entry, looked up): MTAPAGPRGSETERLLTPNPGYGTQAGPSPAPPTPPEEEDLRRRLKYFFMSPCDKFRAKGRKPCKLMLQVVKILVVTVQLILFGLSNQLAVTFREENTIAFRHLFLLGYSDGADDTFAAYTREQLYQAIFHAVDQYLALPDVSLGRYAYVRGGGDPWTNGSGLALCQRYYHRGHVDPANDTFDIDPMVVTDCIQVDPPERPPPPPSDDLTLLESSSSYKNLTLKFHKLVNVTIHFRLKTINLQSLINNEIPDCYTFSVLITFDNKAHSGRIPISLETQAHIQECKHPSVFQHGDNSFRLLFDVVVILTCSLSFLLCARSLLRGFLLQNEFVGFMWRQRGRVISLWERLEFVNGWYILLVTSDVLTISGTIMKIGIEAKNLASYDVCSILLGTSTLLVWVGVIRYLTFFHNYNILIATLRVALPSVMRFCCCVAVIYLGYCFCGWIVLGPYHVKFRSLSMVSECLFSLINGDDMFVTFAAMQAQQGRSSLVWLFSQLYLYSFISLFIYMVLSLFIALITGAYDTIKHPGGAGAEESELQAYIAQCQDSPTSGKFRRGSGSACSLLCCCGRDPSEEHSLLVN
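Tet-induced TRPML1-DL cells loaded with Ca8 no-wash calcium dye were read kinetically on FDSS. Compound addition was followed by EC80 agonist 54-4 (4 uM final); inhibition was read over 110 s.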
Menin-MLL FL inh: menin-MLL binding inhibition, fluorescein peptide. Fluorescence polarization, fluorescein-MLL peptide displacement from menin. FP activity change, % at 61.4 µM. 290,000 tested, under 10 active; inconclusive = falling polarisation curve, or a change in total fluorescence; inactive = total fluorescence flat and polarisation flat or rising; no compound was filed as active; the % refers to the polarisation; negative = inhibition;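 note: % of control where 0% means no effect; inhibitors lower the polarisation; unlabelled MLL peptide was the positive control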
gsp agonist: agonists of gsp mutant (McCune-Albright syndrome). gsp mutant cells, cAMP HTRF, 30 min; control for the full effect not named in the record. Potency, µM (series often up to 76.9 µM), without a hit: at the highest dose activation (cAMP increase), hits mostly activators. hit rate 0.13% among 340,000; active = well fitted activation curve with a large enough effect; inconclusive = small, poorly fitted or top-dose-only effect, or another doubt; inactive = no such curve, though single readings can be large or run the other way; cell line not stated here;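 note: phosphodiesterase inhibitor Ro 20-1724 added with compounds to block cAMP breakdown; potency is the fitted concentration of half-maximal effect; nearly all actives have a fitted effect of over 60% in size; about a fifth of the inactives were tested at one dose only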
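Cells stably selected in G418 were plated at 2000/well, grown 16-24 hr, then given compounds in DMSO with the PDE inhibitor […] (300 uM solution added) for 30 min at 37C; cAMP was read by HTRF.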
Active calls of the source: *; ? = inconclusive; · = no result given; & = joins results of further samples; [ ] = dose if it differs, or a comment.

SMILES	TRPV1 potentiator	ClpP mod	gsp antag	Sfp PPTase inh	TRPML1 blocker	Menin-MLL FL inh	gsp agonist
CCOC(=O)C1CCN(C(=O)CCN2C(=O)C3C4C=CC(C4)C3C2=O)CC1 (stereo not drawn)	9	-1.5%	3%	7%	-2	0.7	13%
CCCCOC(=O)Nc1ccc(OC)cc1S(=O)(=O)N1CCOCC1	5	-0.5%	-12%	5%	-7	0.6	-46%[inhibitor]
O=C1CC(c2ccc(O)cc2)Oc2ccccc21 (stereo not drawn)	15	2.0%	12%	-1%	25	9.8	5%
O=C(NCC(=O)N1CCCC(C(F)(F)F)C1)c1cccs1 (stereo not drawn)	·	·	9%	·	1	·	-8%[15.4 µM]
CC1CN(C(=O)c2cccc(NS(=O)(=O)c3ccc(Br)cc3)c2)CC(C)O1 (stereo not drawn)	·	-1.9%	·	·	-2	·	14%
O=C(NCCC1CCCCN1S(=O)(=O)c1ccc(F)cc1)C(=O)NC1CCCC1 (stereo not drawn)	-27	1.0%	7%	·	3	·	16%
CCN1CCN(C(=O)CN(c2cccc(Br)c2)S(=O)(=O)c2ccccc2)CC1	-12	8.8%	3%	2%	5	-1.2	?
Cc1ccccc1-n1c(=O)c2ccccc2n2nnnc12	3	-1.4%	1%	3%	-14	7.6	-19%
Cc1nnc(N2C(=O)C(=O)/C(=C(/O)c3ccc4c(c3)OCCO4)C2c2ccc(F)cc2)s1 (stereo not drawn)	6	-0.6%	-8%	2%	1	-0.2	7.9µM*
Cc1ccc(OC(=O)c2cccc([N+](=O)[O-])c2)c(-n2nc3ccccc3n2)c1	-7	-8.0%	6%	-28%	25	8.4	5%
CC(C)(C)C1CCC(=NNC(=O)C(=O)NCc2cccnc2)CC1 (stereo not drawn)	3	·	2%	19%	19	-1.3	4%
O=C1OCC/C1=C\c1ccccc1	3	-1.0%	13%	9%	30	2.9	-38%[inhibitor]
CCS(=O)(=O)N1CCC(C(=O)NCc2ccccn2)CC1	4	1.0%	5%	17%	-9	0.9	?
CSc1nc(=S)n(Cc2ccccc2)c(C)c1C(C)=O	2	-0.5%	-2%	-4%	1	-1.9	-1%
CC(=O)c1ccc(Sc2ccccn2)c([N+](=O)[O-])c1	-2	1.2%	11%	11%	-7	3.5	0%[15.4 µM]
CCN(CC(=O)Nc1c(F)cccc1F)C(=O)COc1ccc2c(c1)CCC2	2	-0.9%	7%	·	-6	·	-2%[15.4 µM]
O=C(NC1CCCC1)C(c1ccsc1)N(CCc1ccccc1)C(=O)Cc1cccs1 (stereo not drawn)	0	1.5%	9%	19%	-3	2.8	-58%[inhibitor]
C/C=C/C(=O)OCC(=O)Nc1ccc(F)cc1Cl	20	1.5%	5%	2%	1	1.5	-5%
O=C(CCNS(=O)(=O)c1c(Cl)cccc1Cl)OCC(=O)c1ccccc1F	8	-0.8%	0%	-1%	-10	3.2	?
O=C(CN1CCCCCC1)Nc1cccc(Br)c1	-18	1.0%	14%	6%	4	-0.2	-72%[inhibitor]
NS(=O)(=O)c1ccc(NC(=O)COC(=O)c2ccc(Cl)cc2[N+](=O)[O-])cc1	13	-0.6%	1%	10%	9	-1.0	20%
COC(=O)NC1(C(F)(F)F)C(=O)Nc2c1c(=O)n(C)c(=O)n2C (stereo not drawn)	22	-2.3%	-5%	19%	32	4.8	11%[15.4 µM]
O=C(Nc1ccc(Cl)c(Cl)c1)c1ccccc1	9	2.5%	11µM*	·	-12	·	·
COC(=O)N(C)C[C@@H]1OCc2cn(nn2)CCCC(=O)N([C@@H](C)CO)C[C@H]1C	·	-0.2%	·	·	5	·	-36%[inhibitor]
Cc1cc(=O)n2nc(N3CCC(C(=O)NCCc4ccc(Cl)cc4)CC3)sc2n1	8	1.9%	-25%	3%	-7	·	10%
O=C(CSc1nncc2ccccc12)Nc1cccc(C(=O)O)c1	-5	-4.9%	-7%	?	·	2.1	?
NCCCC[C@H]1CNC(=S)N1CC1CCCCC1	-4	-3.0%	9%	12%	5	-4.9	·
CC(C)Cc1n[nH]c(=O)c2c1nnn2Cc1ccccc1F	-15	·	5%	2%	10	-4.2	-9%
O=C(COC(=O)CCC(=O)c1cccs1)Nc1ccc(Cl)cn1	21	-4.3%	6%	?	-8	-7.4	2%
Fc1ccc(Nc2ccnc(Nc3ccc(F)cc3)n2)cc1	-10	-23%	-25%	?	-1	-0.3	-6%
CCC(=O)N1CCN(c2ccccc2NC(=O)Cc2ccc(Cl)cc2)CC1	3	-2.3%	4%	-2%	-1	1.4	-24%
Cc1oc(-c2ccccc2)[n+]([O-])c1C	6	0.9%	14%	9%	9	1.9	-8%
O=C(N/N=C/c1ccc(Br)o1)/C(=C/c1ccc([N+](=O)[O-])cc1)NC(=O)c1ccccc1	5	0.9%	0%	14%	4	5.1	-35%[inhibitor]
COc1cc(C=O)ccc1OCCCOc1ccc([N+](=O)[O-])cc1	5	-0.5%	-19%	-6%	33	·	26%
CN(C)C(CNC(=O)c1cccc(S(=O)(=O)N(C)C)c1)c1ccccc1 (stereo not drawn)	-1	1.1%	9%	3%	-1	-2.0	-4%
CCOC(=O)c1cnc(SCC(=O)N2CCOCC2)nc1N	-11	·	-5%	6%	-21	-2.0	-23%[15.4 µM]
O=C(O)c1ccc(NC2=C/C(=N/S(=O)(=O)c3cccs3)c3ccccc3C2=O)cc1	·	-0.3%	·	·	18	·	-6%
O=C(COc1ccccc1Cl)Nc1ccc(CN2CCOCC2)cc1	6	-2.6%	-8%	15%	1	·	19%
CC(C)c1ccc(C(=O)NC(=S)NCc2cccnc2)cc1	-18	-0.4%	-20%	-2%	-20	·	-53%[inhibitor]
COc1cccc(-n2c(=O)c3ccccc3n(CC(=O)NCC3CCCO3)c2=O)c1 (stereo not drawn)	3	·	5%	4%	8	-5.2	-12%[15.4 µM]
COC(=O)c1cc(C)sc1NC(=O)c1ccco1	-6	?	-14%	-6%	-8	·	24%
Cc1ccc(Nc2cc(C)nc3ncnn23)c(Cl)c1	3	-0.6%	2%	-6%	-2	4.5	10%
C=CCC(=O)N1CCCC(C(=O)c2ccc(Cl)cc2)C1 (stereo not drawn)	-8	-0.5%	8%	-2%	18	9.3	-2%
COC(=O)c1cccc(C23CC4(C2)[C@H](CN(Cc2ccc(-c5ccccc5)cc2)[C@@H]4c2ccccc2)C3c2ccc(Cl)nc2)c1 (stereo partly drawn)	?	-4.4%	0%	14%&2%	-18	6.9&2.8	-6%
CCOc1cc(CC(=O)N[C@@H](CC(C)C)c2ccccc2N2CCCCC2)ccc1C(=O)O	-6	2.2%	?	24%&6%	-12	5.4	·
Cc1cc(C)n2nc(C(=O)NC3CCCc4ccccc43)nc2n1 (stereo not drawn)	3	·	3%	21%	-4	0.8	-17%[15.4 µM]
Cc1cc(C)c2c(c1)-c1cc(C)nn1C(c1ccc3c(c1)OCO3)N2 (stereo not drawn)	-2	32µM*	0%	-1%	31	0.3	8%
CC(C)=CCN1CCN(Cc2cccnc2)CC1CCO (stereo not drawn)	6	·	11%	22%	-4	-4.4	-6%[15.4 µM]
O=C(CSc1ccc2nnc(-c3ccncc3)n2n1)Nc1ccc2c(c1)OCO2	-24	-0.4%	0%	9%	-3	6.6	16µM*
COC(=O)N(C)C[C@@H]1OCc2cnnn2CCCC(=O)N([C@H](C)CO)C[C@H]1C	·	0.5%	·	·	-12	·	-35%[inhibitor]
COc1ccc2c(c1)NC(=O)CC(c1ccccc1)=N2	2	0.0%	5%	-7%	-1	2.3	-3%
O=C(Cc1ncc(C(F)(F)F)cc1Cl)NCCc1ccccc1	-17	1.4%	3%	14%	2	3.8	3%[15.4 µM]

13 successive entries already listed, for reference:
SMILES	TRPV1 potentiator	ClpP mod	gsp antag	Sfp PPTase inh	TRPML1 blocker	Menin-MLL FL inh	gsp agonist
CC(C)Cc1n[nH]c(=O)c2c1nnn2Cc1ccccc1F	-15	·	5%	2%	10	-4.2	-9%
O=C(COC(=O)CCC(=O)c1cccs1)Nc1ccc(Cl)cn1	21	-4.3%	6%	?	-8	-7.4	2%
Fc1ccc(Nc2ccnc(Nc3ccc(F)cc3)n2)cc1	-10	-23%	-25%	?	-1	-0.3	-6%
CCC(=O)N1CCN(c2ccccc2NC(=O)Cc2ccc(Cl)cc2)CC1	3	-2.3%	4%	-2%	-1	1.4	-24%
Cc1oc(-c2ccccc2)[n+]([O-])c1C	6	0.9%	14%	9%	9	1.9	-8%
O=C(N/N=C/c1ccc(Br)o1)/C(=C/c1ccc([N+](=O)[O-])cc1)NC(=O)c1ccccc1	5	0.9%	0%	14%	4	5.1	-35%[inhibitor]
COc1cc(C=O)ccc1OCCCOc1ccc([N+](=O)[O-])cc1	5	-0.5%	-19%	-6%	33	·	26%
CN(C)C(CNC(=O)c1cccc(S(=O)(=O)N(C)C)c1)c1ccccc1 (stereo not drawn)	-1	1.1%	9%	3%	-1	-2.0	-4%
CCOC(=O)c1cnc(SCC(=O)N2CCOCC2)nc1N	-11	·	-5%	6%	-21	-2.0	-23%[15.4 µM]
O=C(O)c1ccc(NC2=C/C(=N/S(=O)(=O)c3cccs3)c3ccccc3C2=O)cc1	·	-0.3%	·	·	18	·	-6%
O=C(COc1ccccc1Cl)Nc1ccc(CN2CCOCC2)cc1	6	-2.6%	-8%	15%	1	·	19%
CC(C)c1ccc(C(=O)NC(=S)NCc2cccnc2)cc1	-18	-0.4%	-20%	-2%	-20	·	-53%[inhibitor]
COc1cccc(-n2c(=O)c3ccccc3n(CC(=O)NCC3CCCO3)c2=O)c1 (stereo not drawn)	3	·	5%	4%	8	-5.2	-12%[15.4 µM]
